ClpP mod: qHTS Assay for Activators of ClpP. hit rate 1.9% among 340,000. ATP-dependent Clp protease proteolytic subunit (Bacillus subtilis (strain 168)), P80244. purified B. subtilis ClpP, FRET peptide cleavage, 20 min. Potency, µM (series often up to 57.5 µM), for inactives: at the top dose activity change, negative = active; active = well fitted falling curve with a large enough effect; inconclusive = small, poorly fitted or top-dose-only effect; inactive = no such curve, though single readings can be large or run the other way; also: potency is read from the fitted curve at half-maximal effect; the source files actives as falling curves though it sought activators and does not explain the sign; nearly all actives have a fitted effect of over 65% in size; many hits overshoot -100%
Target sequence (P80244 whole entry, looked up): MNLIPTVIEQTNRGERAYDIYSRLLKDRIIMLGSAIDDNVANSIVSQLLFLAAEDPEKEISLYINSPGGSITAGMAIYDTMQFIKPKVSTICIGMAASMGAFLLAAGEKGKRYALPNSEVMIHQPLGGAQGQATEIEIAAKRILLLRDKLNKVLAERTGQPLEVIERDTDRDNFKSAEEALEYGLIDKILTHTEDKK
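FRET quenching reversal measured ClpP activation: 10 microg/mL B. subtilis ClpP at pH 8 with the FRET-FV decapeptide, read at 430 nm after 320 nm excitation. The 20-min minus 0-min signal was scaled between DMSO/no-enzyme wells and ADEP (5.8 microM final).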
TRPML1 ag: human mucolipin-1 channel agonism; TRPML1-expressing cells, Ca2+ dye fluorescence, FDSS; host cell line not named in the record; reference of the full effect not given here; hit rate 0.12% among 410,000; Q9GZU1; activation, % (no concentration beside the values); in the data active = activation above about 50%; inconclusive = about 30% to 50%; inactive = below about 30%; also: 0% is about no effect; the text of the record puts the active cut at 80%
Target sequence (Q9GZU1 whole entry, looked up): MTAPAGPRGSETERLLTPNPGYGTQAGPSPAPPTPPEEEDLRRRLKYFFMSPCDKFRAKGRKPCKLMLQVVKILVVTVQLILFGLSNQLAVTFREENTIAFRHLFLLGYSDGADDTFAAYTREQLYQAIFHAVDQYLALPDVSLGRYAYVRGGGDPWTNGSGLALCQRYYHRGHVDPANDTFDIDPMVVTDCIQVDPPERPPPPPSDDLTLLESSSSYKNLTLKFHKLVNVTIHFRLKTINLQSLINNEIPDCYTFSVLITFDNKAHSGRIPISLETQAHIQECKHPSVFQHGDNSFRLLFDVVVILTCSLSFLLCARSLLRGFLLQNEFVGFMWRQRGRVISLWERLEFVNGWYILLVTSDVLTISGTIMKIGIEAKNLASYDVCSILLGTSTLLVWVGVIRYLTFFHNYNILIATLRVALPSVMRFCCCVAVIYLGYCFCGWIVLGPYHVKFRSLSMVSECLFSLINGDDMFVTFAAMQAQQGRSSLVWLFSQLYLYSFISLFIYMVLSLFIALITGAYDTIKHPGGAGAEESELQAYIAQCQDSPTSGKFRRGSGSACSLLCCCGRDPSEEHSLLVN
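Tetracycline-induced TRPML1-DL cells are seeded and incubated overnight before loading with a no-wash Ca2+ dye and quencher. Agonist activity is taken from the 110 s fluorescence read following compound pin-transfer on an FDSS, before EC80 54-4 challenge.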
gsp agonist: activates gsp, the McCune-Albright syndrome mutation | gsp mutant cells, cAMP HTRF, 30 min; control for the full effect not named in the record | Potency, µM (top dose mostly 76.9 µM), without a hit: top-dose activation (cAMP increase), most hits filed as activators | hit rate 0.13% among 340,000; active = well fitted activation curve with a large enough effect; inconclusive = small, poorly fitted or top-dose-only effect, or another doubt; inactive = no such curve, though single readings can be large or run the other way; cell line not stated here;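 also: phosphodiesterase inhibitor Ro 20-1724 added with compounds to block cAMP breakdown; potency is read from the fitted curve at half-maximal effect; nearly all actives have a fitted effect of over 60% in size; about a fifth of the inactives were tested at one dose only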
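Cells in DMEM/10% FBS with G418 were pretreated with compounds in DMSO plus […] (300 uM stock) for 30 min at 37C. cAMP was measured by HTRF (cAMP-d2 plus anti-cAMP antibody-K) after 30 min at room temperature.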
Menin MLL FP FL: displaces fluorescein MLL peptide from human menin; 290,000 tested, under 10 active; FP activity change, % at 61.4 µM; AID 1766; Fluorescence polarization, fluorescein-MLL peptide displacement from menin; inconclusive = falling polarisation curve, or a change in total fluorescence; inactive = total fluorescence flat and polarisation flat or rising; no compound was filed as active; the % refers to the polarisation; negative = inhibition;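 also: % of control where 0% means no effect; inhibitors lower the polarisation; unlabelled MLL peptide was the positive control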
gsp antagonist: antagonists of gsp mutant (McCune-Albright syndrome); gsp-mutant cells, cAMP HTRF, 30 min; control for the full effect not named in the record; Potency, µM (highest dose often 76.9 µM), without a hit: top-dose activity change, negative = inhibition, actives largely listed as inhibitors; hit rate 0.4% among 340,000; AID 624288; active = falling curve of any shape with a large fitted effect; inconclusive = falling curve, mostly with a smaller effect; inactive = flat or rising curve; cell line not stated here;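 also: intracellular cAMP measured with PDE inhibitor Ro 20-1724 present during compound exposure; potency is read from the fitted curve at half-maximal effect; % is scaled to controls: 0 for no effect and ±100 for the full control effect; nearly all actives have a fitted effect of over 65% in size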
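Cells, 2000/well, grown 16–24 h in DMEM 10% FBS with 0.5 mg/ml G418, then compounds plus […] (300 uM addition stock), 30 min at 37C. cAMP read by HTRF (cAMP-d2 and anti-cAMP antibody-K in lysis buffer) after 30 min RT.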
TRPML1 blocker: blocks the human TRPML1 channel; hit rate 0.02% among 390,000; AID 624415; TRPML1-inducible cells, Ca2+ dye fluorescence, FDSS; hits give low values; inhibition of EC80 agonist-evoked calcium signal; activity change, negative = inhibition, % (test concentration not listed); in the data active means activity change below about -50%; inconclusive means about -30% to -50%; inactive means above about -30%;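 also: stimulus is agonist 54-4 at its EC80 concentration; % is scaled to controls: 0 for no effect and ±100 for the full control effect; compound concentration not given in the record; the text of the record puts the active cut at -80%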
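Tet-induced TRPML1-DL cells loaded with Ca8 no-wash calcium dye were read kinetically on FDSS. Compound addition was followed by EC80 agonist 54-4 (4 uM final); inhibition was read over 110 s.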
Active calls of the source: *; ? = inconclusive; nt = not tested or not shown; & = joins results of further samples; [ ] = another dose, or the depositor's remark.

SMILES	ClpP mod	TRPML1 ag	gsp agonist	Menin MLL FP FL	gsp antagonist	TRPML1 blocker
O=C(C1CC1)N1N=C(c2ccc(Cl)cc2)CC1(O)C(F)(F)F (stereo not drawn)	-4.8%	nt	0.1%	1.7	-0.6%	nt
COc1ccc(C(=O)NCC(c2ccco2)N2CCc3ccccc32)cc1 (stereo not drawn)	nt	-1.0	6.6%[15.4 µM]	nt	7.6%	8.5
Cn1c(CCC(=O)Nc2ccc(F)cc2)nc2cc(S(=O)(=O)N3CCOCC3)ccc21	nt	-0.9	12.3%[15.4 µM]	nt	-3.3%	4.0
CC(C)(C)n1nnnc1C(c1ccc(F)cc1)N(Cc1ccc(F)cc1)Cc1ccco1 (stereo not drawn)	0.1%	?	11.5%	-1.1	-4.2%	-27.5
CN(C)S(=O)(=O)NC(=O)C1=C(N2CCCC2)COC1=O	-1.7%	-0.2	nt	nt	5.2%	-2.7
c1nc(C2CCCCC2)cc2cc3c(cc12)OCO3	-0.9%	3.4	nt	nt	1.5%	0.0
O=C1CC(C(=O)N2CCc3ccccc32)CN1c1ccc(F)cc1 (stereo not drawn)	nt	1.1	-5.1%	-0.4	-8.4%	-21.0
CCOC(=O)c1ccc(-c2c(-c3ccc4c(c3)OCO4)noc2-c2ccsc2)cc1F	-23.3%&-20.4%	-0.6&-0.5	4.8%	-1.2	6.1%	-8.7
Cc1ccc(C)c(NC(=O)CCC(=O)N/N=C2/CC(=O)CC(C)(C)C2)c1	nt	2.6	?	2.0	4.7%	6.5
CCc1ccc(OCC2c3cc(OC)c(OC)cc3CCN2C(=S)NCCOC)cc1 (stereo not drawn)	-1.8%	-0.2	-1.0%	6.6	-18.8%	-13.0
CN(c1ccccc1)c1nc(N)c([N+](=O)[O-])c(NCc2ccccc2)n1	-1.3%	1.4	9.4%[15.4 µM]	4.2	-8.8%	20.6
CN1CCN(NC(=O)/C=C/c2cccc(Cl)c2)CC1	-0.5%	0.5	18.5%	nt	17.0%	4.4
Cc1ccc(CCNC(=O)CSCc2nc(-c3ccc(C)cc3)oc2C)cc1	-11.2%	0.9	nt	nt	nt	1.8
COc1ccccc1N1CCN(S(=O)(=O)c2c(C)sc3ncn(CC(=O)Nc4cccc(Cl)c4)c(=O)c23)CC1	-1.4%	1.9	nt	nt	nt	-6.2
O=C(NCC(c1cccnc1)N1CCN(c2ccccc2F)CC1)C(=O)Nc1ccc(F)cc1F (stereo not drawn)	-1.4%	1.5	nt	nt	nt	-15.9
O=C(c1ccco1)N1CCN(C(c2ccccc2F)c2nnnn2Cc2cccs2)CC1 (stereo not drawn)	1.4%	0.5	-39.4%[inhibitor]	1.6	-12.4%	0.5
Cc1ccc(C(=O)NCCNC(=O)Cc2ccccc2)cn1	nt	0.7	-7.5%[15.4 µM]	-2.8	6.4%	-0.7
N#Cc1c(-c2ccccc2)nc(-c2ccccc2)[nH]c1=O	-4.2%	3.3	?	5.9	?	18.9
COc1ccc(N)cc1C#N	-13.9%	0.6	-2.1%	0.2	-7.2%	-4.9
O=C(Nc1ccccn1)c1c(O)c2cccc3c2n(c1=O)CCC3	-4.6%	-0.1	11.8%	0.4	0.8%	-2.8
COc1cc([N+](=O)[O-])cc(/C=N/NC(=O)Cn2cncn2)c1O	0.6%	-0.4	-6.0%	1.6	-1.4%	-4.1
CCOC(=O)CSc1nnc(C2CCCCC2)n1C	-1.4%	1.5	3.0%	-1.7	5.4%	1.7
COc1ccc(C2=C(N3CCN(c4cccc(C)c4C)CC3)c3ccccc3C2=O)cc1	0.4%	-0.4	nt	nt	nt	-20.1
COC(=O)c1ccc(NC(=O)[C@H](C)NC(N)=O)cc1	0.2%	0.6	3.6%	-0.2	-7.7%	7.0
Nc1nc(-c2ccco2)cs1	1.0%	-0.9	-67.0%[inhibitor]	-0.9	-1.9%	9.4

Later entries.
SMILES	ClpP mod	TRPML1 ag	gsp agonist	Menin MLL FP FL	gsp antagonist	TRPML1 blocker
CCc1ccc(NC(=O)Cc2ccc(NC3=NC4CS(=O)(=O)CC4S3)cc2)cc1 (stereo not drawn)	0.0%	0.1	-23.5%	3.0	8.5%	1.4
CC(=O)Nc1ccc(CN2CCN(C3CCCC3)C(CCO)C2)cc1 (stereo not drawn)	nt	0.3	7.3%	0.5	7.8%	-9.9
NNC(=O)c1cccc(O)c1	-6.9%	-0.8	-6.3%	7.1	6.9%	-10.5
COc1ccccc1-c1cc(C(F)(F)F)nc(S(=O)(=O)CCCC(=O)Nc2ccc(F)c(Cl)c2)n1	0.5%	-0.7	nt	nt	nt	-3.7
Cc1nnc(NC(=O)CSc2nccn2Cc2ccccc2)s1	-1.3%&-9.8%	0.8&1.0	7.7%	nt	3.8%	16.6&-3.8
Cc1csc2nc3cc(C(N)=O)ccc3c(=O)n12	5.1%	-0.9	nt	2.9	11.2%	-6.1
CCOC(=O)N1CCN(C(=O)c2cnn(-c3cccc(C)c3)c2-n2cccc2)CC1	1.0%	1.9	nt	nt	nt	-3.8
CCOc1ccc(Cl)cc1CN1CCOCC1	-5.2%	-0.4	16.2%	-0.7	8.7%	-14.9
Cc1oc(-c2ccc(Cl)cc2)nc1CN1CCC(C(=O)NCCCN2CCCC2=O)CC1	-9.6%	1.4	-9.0%	-1.8	-1.8%	-4.8
O=C(CCc1ccccc1)N/N=C/c1cccc([N+](=O)[O-])c1	-0.4%	0.4	-96.2%[inhibitor]	-1.1	13.1%	-23.0
S=C1NCCc2ccc(Cl)cc2C1c1ccccc1 (stereo not drawn)	-0.4%	0.2	-35.9%[inhibitor]	3.4	8.9%	19.7
CCCNC(=O)COC(=O)c1ccccc1OCc1ccc(Cl)cc1	-7.0%	1.8	-5.6%	1.6	?	56.6
O=C(NC1CCCCC1)c1cccc2c1C(=O)c1ccc(N3CCC(Cc4ccccc4)CC3)cc1S2(=O)=O	0.9%	25.1	?	nt	1.6%	4.1
Cc1ccc(/C(N)=N/OC(=O)Cc2cccs2)cc1	2.3%	-0.1	-30.1%[inhibitor]	3.3	-7.2%	9.8
CCC[C@@H]1C=C(C(=O)OCC)[C@H](c2ccccc2)N1S(=O)(=O)c1ccc(C)cc1	-4.1%	3.6	nt	nt	nt	22.5
O=C(NCC1CCCO1)C(Cc1ccccc1)N1C(=O)C2C3C=CC(C4CC34)C2C1=O (stereo not drawn)	nt	-0.1	-2.0%[15.4 µM]	-0.5	0.5%	-10.7
CCOC(=O)Cc1csc(NC(=O)c2cnc3sc(C)cn3c2=O)n1	-15.3%	-0.7	20.4%	nt	12.0%	6.6
CCN(CC)C(=O)C12C(=O)Oc3ccccc3C1C2(C)C(=O)c1ccc(F)cc1 (stereo not drawn)	0.7%	0.2	-27.7%[15.4 µM]	-2.3	-25.3%	-15.5
COC(=O)c1c(NC(=O)C2CC=CCC2C(=O)O)sc(C)c1C (stereo not drawn)	-26.9%	0.5	19.4%	0.3	-13.9%	18.5
CC(C)CCOCC(O)CCC(=O)NNC(=S)Nc1ccccc1 (stereo not drawn)	-2.5%	0.4	19.5%	-2.3	-12.8%	12.2
Cc1cc(C)c2c(CC(=O)Nc3c(C(=O)Nc4ccc(Cl)cc4)oc4ccccc34)coc2c1	7.94µM*	0.1	nt	nt	nt	-10.0
CCOc1ccc(OCC(=O)OCC(=O)Nc2ccccc2C#N)cc1	1.7%	0.9	1.1%[15.4 µM]	nt	4.5%	-13.6
CCc1ccc(N=C2NC(=O)CC(C(=O)Nc3ccc(OC)cc3)S2)cc1 (stereo not drawn)	0.6%	-0.7	nt	nt	nt	-16.4
O=C(Oc1ccccc1/C=C\C(=O)c1cc2ccccc2o1)c1cccc(F)c1	-1.4%	-0.6	0.1%[15.4 µM]	-0.3	1.2%	3.4
CC(C)C(c1nnnn1Cc1ccccc1)N(Cc1ccco1)Cc1cccs1 (stereo not drawn)	-0.8%	5.3	-26.8%	4.6	-11.9%	29.6

Remaining list, next part.
SMILES	ClpP mod	TRPML1 ag	gsp agonist	Menin MLL FP FL	gsp antagonist	TRPML1 blocker
CCOc1ccc(C(=O)NCC(=O)OCc2c(C)noc2C)cc1	0.6%	-0.4	1.1%[15.4 µM]	2.6	23.1%	38.1
COc1ccc(CNC(=O)c2cc3cc(OC)ccc3oc2=O)cc1	-0.2%&-18.7%	2.3&4.9	14.2%[15.4 µM]	0.8	-7.2%	19.1&-6.6
Cc1cc(C)c2c(c1)-c1c(ssc1=S)C(C)(C)N2C(=O)CSc1nncn1C	1.1%	0.1	-41.8%[inhibitor]	3.4	10.9%[15.4 µM]	26.0
CCn1nc(C)c(CN2CCCC(CNS(=O)(=O)c3ccc(OC)cc3)C2)c1C (stereo not drawn)	0.6%	0.5	-67.7%[inhibitor]	nt	2.9%	4.8
CC(=O)Oc1cc2c(c3ccccc13)CCC2=O	0.7%	-0.6	7.4%[15.4 µM]	nt	4.5%	7.2
CC(C)C(NC(=O)c1ccc(Cl)cc1Cl)C(=O)N1CCC1 (stereo not drawn)	0.8%	-0.3	-46.6%[inhibitor]	nt	9.5%	-12.3
CN(C)C1=NC[C@H](Cc2ccccc2)N1CC1CCCC1	-0.8%	-0.2	nt	nt	8.2%	3.8
CCN=C1SC(C(=O)Nc2cccc(Cl)c2)CC(=O)N1CC (stereo not drawn)	0.9%	-0.2	?	-1.4	-4.8%	21.0
C#CCOCCOCCOCCNc1nc(N2CCN(C(=O)Cn3cc(CCCCN)nn3)CC2)nc(N2CCN(C(=O)[C@H](CCCCN)n3cc(CCCC)nn3)CC2)n1	1.7%	-0.4	13.7%	nt	13.1%	1.5
CCOC(=O)Cn1cnc2c(nnn2Cc2ccc(Cl)cc2)c1=O	-1.9%	1.7	-0.9%	0.2	1.4%	-13.8
CCOC(=O)Cc1csc(SCC(=O)N2CCN(c3ccccc3)CC2)n1	0.3%	-0.5	5.5%[15.4 µM]	nt	-20.0%	-0.5
COCCNC(=O)CCn1nc(-c2ccc(Cl)cc2)c2ccccc2c1=O	-0.9%&-5.0%	1.9&0.1	23.5%	0.3	-5.7%	-5.7&45.5
COc1ccc2nc3oc(C(=O)N4CCN(c5ccccc5F)CC4)cc3cc2c1	-26.7%	1.2	12.0%	31.2[activator]	10.0%	20.5
O=C(Nc1ccc(Nc2ccccc2)cc1)C1CC1	-2.0%	2.5	-34.9%[inhibitor]	1.3	-7.3%	11.4
Cc1oc2ccc(OCc3ccc(Cl)cc3)cc2c1C(=O)O	nt	0.5	1.3%	2.2	-5.8%	23.5
CCOC(=O)C1CCCN(C(=O)C2CCN(S(=O)(=O)c3cccs3)CC2)C1 (stereo not drawn)	-1.1%	-0.3	30.5%	3.5	-14.0%	-10.8
COc1ccc(S(=O)(=O)n2c(N)nc3ccccc32)cc1	-3.0%	2.5	nt	nt	nt	-6.0

Bioassay records (PubChem BioAssay)
